D2 agonist = activates the human D2 dopamine receptor; activation, % (test concentration not listed); hit rate 0.084% among 360,000; DiscoveRx PathHunter D2 beta-arrestin, luminescence, 90 min; 100% = 57 uM dopamine signal; in the data active = activation above about 40%; inconclusive = about 15% to 40%; inactive = below about 15%; also: compound concentration not given in the record; the text of the record calls up to 30% inactive
Target sequence (P14416 whole entry, looked up): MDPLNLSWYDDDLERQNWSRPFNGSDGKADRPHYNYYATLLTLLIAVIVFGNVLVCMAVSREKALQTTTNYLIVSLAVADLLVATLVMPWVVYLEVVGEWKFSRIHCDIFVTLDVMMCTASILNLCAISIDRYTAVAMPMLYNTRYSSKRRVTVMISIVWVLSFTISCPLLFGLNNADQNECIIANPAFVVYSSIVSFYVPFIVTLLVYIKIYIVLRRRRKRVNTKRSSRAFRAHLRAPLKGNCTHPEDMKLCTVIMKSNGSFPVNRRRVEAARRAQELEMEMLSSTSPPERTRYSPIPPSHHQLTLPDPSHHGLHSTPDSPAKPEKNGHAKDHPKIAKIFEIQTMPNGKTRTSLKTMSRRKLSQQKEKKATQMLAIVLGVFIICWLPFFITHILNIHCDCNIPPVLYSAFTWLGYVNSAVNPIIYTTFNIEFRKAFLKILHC
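DiscoveRx PathHunter D2 beta-arrestin cells (2,100/well) attached overnight, then compound-stimulated 90 min at 37 C in HBSS/10 mM HEPES/0.1% Tween-20 buffer; beta-galactosidase complementation read by luminescence after 1 h at ambient temperature. Dopamine 57 uM final (EC100) as control.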
PINK1 expr mod = modulators of PINK1 expression. hit rate 0.2% among 410,000. PINK1 immunofluorescence, high-content cytometry, 24 h. AID 624263. Potency, µM (titrated, usually from 76.6 µM), for inactives: top-dose activation (PINK1 increase), usual class: activators; active = well fitted activation curve with a large enough effect; inconclusive = small, poorly fitted or top-dose-only effect; inactive = flat fitted curve, though single readings scatter; cell line not stated here;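 also: potency is read from the fitted curve at half-maximal effect; % of control where 0% means no effect; nearly all actives have a fitted effect of over 65% in size; a mitochondrial uncoupler was the plate control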
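Decision-based qHTS: stable cells, 24 h exposure to five compound concentrations, CCCP as control. Fixed cells stained for PINK1 plus nuclear, mitochondrial and cell markers, cytometer read.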
TRPML1 ag = human mucolipin-1 channel agonism. Q9GZU1. activation, % (concentration not given with the values). hit rate 0.12% among 410,000. TRPML1-expressing cells, Ca2+ dye fluorescence, FDSS; host cell line not named in the record; reference of the full effect not given here. AID 624414; in the data active = activation above about 50%; inconclusive = about 30% to 50%; inactive = below about 30%; also: 0% is about no effect; the text of the record puts the active cut at 80%
Target sequence (Q9GZU1 whole entry, looked up): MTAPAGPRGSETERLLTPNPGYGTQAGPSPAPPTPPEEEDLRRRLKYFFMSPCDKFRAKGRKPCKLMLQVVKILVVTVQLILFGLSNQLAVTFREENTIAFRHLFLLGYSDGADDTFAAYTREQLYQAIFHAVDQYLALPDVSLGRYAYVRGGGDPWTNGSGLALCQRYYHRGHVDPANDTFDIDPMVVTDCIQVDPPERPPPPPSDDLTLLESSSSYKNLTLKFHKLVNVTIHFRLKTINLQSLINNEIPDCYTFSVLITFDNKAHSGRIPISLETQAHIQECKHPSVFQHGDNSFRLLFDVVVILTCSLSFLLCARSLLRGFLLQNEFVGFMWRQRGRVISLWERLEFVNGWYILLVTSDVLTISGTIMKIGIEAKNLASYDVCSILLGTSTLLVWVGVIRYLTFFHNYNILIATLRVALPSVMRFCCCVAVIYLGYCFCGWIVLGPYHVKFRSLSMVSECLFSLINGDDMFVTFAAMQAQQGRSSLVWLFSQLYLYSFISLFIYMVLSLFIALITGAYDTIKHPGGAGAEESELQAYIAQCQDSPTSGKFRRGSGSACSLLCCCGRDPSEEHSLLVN
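In this qHTS format, compounds were pin-transferred onto Ca8-dye-loaded TRPML1-DL cells induced with Tet overnight, and intracellular Ca2+ fluorescence was recorded kinetically for 110 s after a 10 s baseline. A subsequent 4uM final 54-4 (EC80) addition followed by a second 110 s read served as the antagonist phase.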
CtBP-E1A inh = inhibitors of CtBP/E1A interaction | AlphaScreen GST-E1A/His-CtBP binding, 1536-well; stronger effect = lower value; control for the full effect not named in the record | activity change, % (test concentration not listed) | hit rate 0.49% among 340,000 | AID 651724; in the data active means activity change below about -65%; inconclusive means about -30% to -65%; inactive means above about -30%; also: % is scaled to controls: 0 for no effect and ±100 for the full control effect; compound concentration not given in the record
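Steps: dispense buffer (Tris pH 8.0, NaCl 300 mM, TCEP 1 mM, BSA, Tween 20); add 5X protein mix (GST-E1A, His-CtBP, 125 nM each); pin 23 nL compound; 2 h at 37 °C, dark; add 5X beads (50 ug/mL); 1 h; read.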
Six1-Eya2 blk = blocks human Six1 binding to Eya2 | Q15475+O00167 | AlphaScreen GST-Six1/His-Eya2 binding, biochemical; stronger effect = lower value; control for the full effect not named in the record | activity change, % (test concentration not listed) | hit rate 0.56% among 360,000; in the data active = activity change below about -65%; inconclusive = about -30% to -65%; inactive = above about -30%; also: % is scaled to controls: 0 for no effect and ±100 for the full control effect; compound concentration not given in the record
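Compounds are tested against tagged Six1 and Eya2 proteins bridged by glutathione donor and nickel acceptor beads; after a one-hour incubation at 37 °C without light, AlphaScreen emission is recorded.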
TRPML1 inh = inhibitors of human TRPML1 channel; activity change, negative = inhibition, % (concentration not given with the values); TRPML1-inducible cells, Ca2+ dye fluorescence, FDSS; stronger effect = lower value; inhibition of EC80 agonist-evoked calcium signal; hit rate 0.02% among 390,000; Q9GZU1; in the data active means activity change below about -50%; inconclusive means about -30% to -50%; inactive means above about -30%;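 also: stimulus is agonist 54-4 at its EC80 concentration; % is scaled to controls: 0 for no effect and ±100 for the full control effect; compound concentration not given in the record; the text of the record puts the active cut at -80%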
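Tet-induced TRPML1-DL cells loaded with Ca8 no-wash calcium dye were read kinetically on FDSS. Compound addition was followed by EC80 agonist 54-4 (4 uM final); inhibition was read over 110 s.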
Numbers without * were called inactive; ? = inconclusive; . = not tested or not shown; [ ] = another dose, or the depositor's remark.

Structure | D2 agonist | PINK1 expr mod | TRPML1 ag | CtBP-E1A inh | Six1-Eya2 blk | TRPML1 inh
O=C(Nc1ccc2c(c1)OCO2)N1CCN(c2ncccn2)CC1 | -1.5 | 3.3%[38.3 µM] | -0.1 | 3 | -1 | 3
Cc1ccc(C(=O)NCC(=O)OCC(=O)c2ccc3c(c2)NC(=O)CO3)cc1 | 1.7 | 1.2% | -0.4 | -1 | 2 | -2
CCOC(=O)c1ccc(NC(=O)CCc2c(C)n(CC)c3cc(-c4ccccc4OC)nn3c2=O)cc1 | . | 0.1% | -1.1 | . | . | -6
O=C(NCCCN1CCCCC1)C1CCN(S(=O)(=O)N2CCC3(CC2)OCCO3)CC1 | -0.5 | 0.2% | 0.0 | -1 | 10 | 20
CCOC(=O)N1N=C(c2ccccc2)CC1(O)C(C)(F)F (centres undefined) | -1.6 | -1.1% | 0.2 | 7 | 3 | -2
O=C(COc1ccccc1)NCc1n[nH]c(=S)n1-c1ccccc1 | -5.5 | 1.7% | 9.1 | -3 | 5 | -3
CCOc1ccc(C(=O)NCC(c2ccco2)N2CCc3ccccc3C2)cc1 (centres undefined) | -2.2 | -1.7% | 0.8 | -3 | -6 | 25
CC(C)(C)NC(=O)C(=O)NNC(=O)c1cccc(Br)c1 | 1.3 | 0.0% | 0.6 | 0 | -1 | 6
O=C1CCc2cc(NS(=O)(=O)c3cc(F)ccc3F)cc3c2N1CC3 | -2.0 | ? | 0.5 | -4 | -1 | 19
CS(=O)(=O)NN1C(=O)c2ccccc2NC1c1cccc(O)c1 (centres undefined) | -1.8 | 0.1% | -0.8 | 3 | -8 | 3
CCCCC(CC)C(=O)NCC(C)NC(=O)C(CC)CCCC (centres undefined) | 2.0 | 0.1% | 1.4 | 1 | 13 | -7
C=CCN(C(=O)CCC(=O)Nc1cc(C)on1)C(C(=O)NC1CCCC1)c1cccnc1 (centres undefined) | -2.4 | 0.3% | 1.1 | 5 | 3 | 10
CN(C)c1ccc(C=C(C#N)C(=O)c2ccccc2)cc1Br | -4.0 | 3.5% | 0.5 | 8 | 2 | .
Cc1cccc(N2CCN(C(=O)C(Cc3ccccc3)NC(N)=O)CC2)c1C (centres undefined) | -1.4 | -2.3% | 1.5 | 5 | 1 | -1
COc1ccc(CCN2C(=O)CCC2(C)c2nnnn2Cc2ccccc2)cc1OC (centres undefined) | . | -0.7% | 0.1 | -23 | 6 | .
COc1ccc(NC(=O)c2ccccc2[N+](=O)[O-])cc1 | -2.9 | -1.7% | -0.5 | 12 | -9 | 47
COc1ccc(Cl)cc1NC(=S)N1CCC(c2ccc(C)cc2)C1 (centres undefined) | -2.4 | 0.9% | -0.1 | 6 | 11 | 23
CCCCn1c2c(c(=O)n(C)c1=O)C(CC(=O)OCC(=O)Nc1cccc(C(F)(F)F)c1)C(=O)N2 (centres undefined) | 2.5 | 0.8% | 1.0 | 6 | 7 | -12
Cc1cccc(C)c1NC(=O)CNC(=O)c1ccc(S(=O)(=O)NCc2ccco2)cc1 | 1.2 | 0.9% | -0.3 | 4 | 0 | 16
COc1ccc(CCNCc2ccccc2N2CCCC2)cc1 | -3.2 | -0.7% | 0.7 | -12 | 8 | -2

Ordered by molar mass (high to low): part of the list above
Structure | D2 agonist | PINK1 expr mod | TRPML1 ag | CtBP-E1A inh | Six1-Eya2 blk | TRPML1 inh
CCOC(=O)c1ccc(NC(=O)CCc2c(C)n(CC)c3cc(-c4ccccc4OC)nn3c2=O)cc1 | . | 0.1% | -1.1 | . | . | -6
O=C(Nc1ccc2c(c1)OCO2)N1CCN(c2ncccn2)CC1 | -1.5 | 3.3%[38.3 µM] | -0.1 | 3 | -1 | 3
COc1ccc(NC(=O)c2ccccc2[N+](=O)[O-])cc1 | -2.9 | -1.7% | -0.5 | 12 | -9 | 47

The list goes on:
Structure | D2 agonist | PINK1 expr mod | TRPML1 ag | CtBP-E1A inh | Six1-Eya2 blk | TRPML1 inh
O=C1CCC2S/C(=C/Nc3ccc(C(F)(F)F)cc3)C(=O)N12 (centres undefined) | 4.3 | 0.5% | 2.7 | . | -20 | -12
CC(C)(C)c1ccc(OCC(=O)NNC(=O)C2CCCO2)cc1 (centres undefined) | -3.3 | 3.2% | -0.8 | 5 | -1 | -12
CC(C)CN1CC(=O)N2C(c3ccccc3)c3[nH]c4ccccc4c3C[C@H]2C1=O (some centres undefined) | 5.5 | 3.1% | . | 2 | 22 | .
CCOC(=O)C1(C)CCCN1C(=O)c1ccc(OC)cc1 (centres undefined) | -8.3 | 1.1% | -0.7 | 35 | 26 | .
C[C@@H](CN1CCC[C@H]1CN1C(N)=NC[C@@H]1Cc1ccccc1)N1C[C@@H](Cc2ccccc2)N(CCCC2CCCC2)C1=N | -3.5 | 1.3% | -0.5 | -1 | -5 | 10
CN(Cc1ccccc1)c1ccc(S(=O)(=O)N2CCC(C(=O)O)CC2)cc1[N+](=O)[O-] | 0.4 | -0.6% | -0.3 | 0 | 0 | -4
Cc1ccc(C(=O)N2CCN(c3ccc(NC(=S)NC(=O)Cc4ccccc4)cc3)CC2)cc1 | 1.2 | -4.2%[38.3 µM] | 0.8 | -16 | -18 | -6
O=S(=O)(c1ccccc1)c1nc(-c2cccc(Cl)c2)oc1NCc1ccccc1 | . | 2.9% | -0.2 | . | . | 6
O=C(c1ccccc1)N1N=C(C(F)(F)F)CC1(O)c1ccccc1 (centres undefined) | 0.9 | 4.4% | . | . | 14 | .
COC(=O)[C@@]1(Cc2ccc(OC)cc2)[C@@H]2C(=CC(=O)[C@H]2CC(=O)C(=O)N2CCCC2)CN1C(=O)c1ccccc1 | -0.1 | 0.0% | -0.4 | 4 | 4 | -3
COc1ccc(CNC(=O)Nc2nc(C(N)CCc3ccccc3)cs2)cc1 (centres undefined) | 1.6 | -1.2% | -0.1 | -12 | -12 | .
Cc1ccccc1S(=O)(=O)Cc1ccc(C(=O)NCCCN2CCCC(C)C2)o1 (centres undefined) | 1.1 | 1.7% | 0.1 | 0 | 20 | -18
N#CC1=C(N)OC2=C(C(=O)CCC2)C1c1ccsc1 (centres undefined) | -1.1 | 0.2% | -0.9 | 1 | 1 | -7
COc1ccccc1N1CCN(C2CCCN(C(=O)c3cc(C(C)C)on3)C2)CC1 (centres undefined) | -1.2 | 0.7% | 0.8 | -12 | 3 | 1
Cc1cc(C)cc(NC(=O)C(=O)NCCc2c[nH]c3ccccc23)c1 | 2.8 | 1.1% | 1.1 | -8 | -16 | 14
O=C(CSc1nncn1-c1ccccc1)Nc1c(F)cccc1F | 0.1 | -0.5% | -0.3 | 8 | -2 | -26
COc1ccc(N2Cc3cccc(C(=O)Nc4ccc(F)cc4)c3C2=O)cc1 | . | 4.7% | 0.0 | . | . | -4
Cc1ccccc1NC(=O)N1CCN(S(=O)(=O)c2ccccc2)CC1 | -3.9 | 1.3% | 2.4 | -16 | 5 | -1
C#CCn1c(-c2cccs2)nc2ccccc21 | 5.1 | -0.7% | -0.1 | 6 | -17 | -23
CCOc1ccccc1NS(=O)(=O)c1c(C)noc1C | -0.6 | 1.9% | 0.9 | -3 | 11 | 43
Cc1ccc(CNC(=O)c2cc3c(=O)n4ccccc4nc3n(CC3CCCO3)c2=N)cc1 (centres undefined) | -0.6 | -0.8% | 1.6 | 1 | 2 | 16
CC1CCCCN1C(=O)CSc1nc(C2CC2)nc2c1cnn2-c1ccccc1 (centres undefined) | 0.4 | . | 0.7 | -2 | 8 | -1
COc1ccccc1NC(=S)N1CCN(C/C=C/c2ccccc2)CC1 | -6.7 | 0.2% | 0.2 | -7 | -15 | 0
COc1ccccc1-c1ccc2c(c1)C(C)(Cc1ccc(OC(F)(F)F)cc1)C(=O)N2 (centres undefined) | -3.2 | -0.9% | -0.1 | -5 | 0 | 9
COc1cccc(-c2nn(-c3ccc(C)cc3)cc2C(=O)N(C)CC(=O)Nc2cccc(F)c2)c1 | -0.8 | 0.3% | 0.3 | 5 | -12 | 0
O=C(Oc1ccc(NC(=O)c2cc3c(cc2Br)OCO3)cc1)c1ccccc1 | 3.5 | 6.7% | -0.2 | . | -2 | -5
COc1ccc(CCN2C(=O)CC(N3CCOCC3)C2=O)cc1OC (centres undefined) | 2.3 | -2.1% | 1.3 | 8 | 4 | 2
O=C(NN=Cc1ccc(F)cc1)c1ccccc1NS(=O)(=O)c1cccs1 | -3.1 | 0.5% | -0.7 | . | 4 | 21
CCOc1c(Br)cc(CNc2ccc3c(c2)OCCO3)cc1OC | -1.0 | 3.1% | -0.5 | ? | ? | 24
O=C(NC(Cc1ccccc1)C(=O)O)C1CCCCC1 (centres undefined) | 1.8 | 1.6% | -0.4 | . | 6 | -11
CC(C)Cc1c(O)nc(SCC(=O)Nc2ccc3c(c2)CCC3)[nH]c1=O | -4.4 | . | 0.7 | 10 | 6 | 43
Cc1ccc(S(=O)(=O)N2CCC(C(=O)OC(C)C(=O)NC3CCCCC3C)CC2)cc1C (centres undefined) | -6.0 | 1.5% | 1.9 | 6 | 0 | 2
Cc1ccc(CNC(=O)Cn2cnc(S(=O)(=O)N3CCCCC3)c2)o1 | 1.4 | -1.0% | -0.5 | 0 | -7 | 6
O=C(CSc1nccn1Cc1ccc(F)cc1)NC1CCCCC1 | -0.7 | 0.5% | -0.6 | 2 | -9 | 5
CNC(=O)COC(=O)/C=C/c1cn(-c2ccccc2)nc1-c1ccc2c(c1)OCCO2 | -6.7 | -1.4% | -0.1 | -13 | 19 | 1
CCCn1c(C(C)NS(=O)(=O)c2ccccc2)n[nH]c1=S (centres undefined) | 0.0 | -1.0% | 0.1 | . | 7 | -4
Cc1nn(-c2ccc(N3CCCC3)nn2)c(C)c1CCC(=O)NCc1ccccc1 | . | 2.0% | -0.5 | . | . | -6
CCCCN1C[C@H](c2ccc(OC)cc2)[C@@H](CC(=O)Nc2ccc(Br)cc2)C1=O | -0.9 | 1.0% | 0.5 | 3 | 0 | 6
CS(=O)(=O)N(CC(=O)N1CCCC1)c1ccccc1Br | 3.5 | 0.1% | -0.2 | 6 | 0 | 3
CCOc1ccc(OCC)c(-c2c(=O)n(OCc3ccccc3C(=O)OC)c3ccccc3[n+]2[O-])c1 | -1.2 | -2.8%[38.3 µM] | 2.1 | -10 | -8 | -10
O=C(CSc1nc2ccccc2o1)c1cc2ccccc2oc1=O | 0.4 | 15% | -0.4 | -14 | -7 | -14
CC12C(=O)N(CCC(=O)O)C(=O)C1C1C=CC2C1 (centres undefined) | -2.7 | -0.5% | -0.5 | 2 | 6 | 6
COc1ccc(OC)c(NC(=O)COC(=O)COc2ccc(Nc3ccccc3)cc2)c1 | -1.7 | -1.5% | 0.9 | -2 | -22 | -1

Screens: PubChem, National Center for Advancing Translational Sciences (NCATS)
